Polio RdRp inh: poliovirus RdRp elongation inhibitors, primary screen, biochemical, fluorescence polarization, total intensity. Genome polyprotein (Poliovirus type 1 (strain Mahoney)), P03300. poliovirus polymerase elongation; stronger effect = lower value. % elongation, % (compound at 16.7 µg/mL). 0.66% of 150,000 active; in the data active means % elongation below about 90%; further: some results filed as inactive read as strong as hits
Target sequence (P03300 1749-2209 limits assumed): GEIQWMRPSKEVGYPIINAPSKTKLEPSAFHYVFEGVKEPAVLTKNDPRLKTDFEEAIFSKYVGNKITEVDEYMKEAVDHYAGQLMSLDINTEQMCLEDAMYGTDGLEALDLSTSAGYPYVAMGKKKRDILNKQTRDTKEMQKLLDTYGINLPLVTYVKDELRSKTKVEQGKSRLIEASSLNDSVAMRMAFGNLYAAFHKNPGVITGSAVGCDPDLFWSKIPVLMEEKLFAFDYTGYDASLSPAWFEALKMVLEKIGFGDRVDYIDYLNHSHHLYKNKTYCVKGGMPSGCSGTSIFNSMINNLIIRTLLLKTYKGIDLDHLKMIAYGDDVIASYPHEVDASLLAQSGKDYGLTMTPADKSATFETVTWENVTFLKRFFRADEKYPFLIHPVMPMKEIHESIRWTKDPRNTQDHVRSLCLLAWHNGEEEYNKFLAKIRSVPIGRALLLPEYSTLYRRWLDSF
MbtI inh: MbtI salicylate synthase inhibitors, primary screen, biochemical, fluorescence intensity; P9WFX0; purified MbtI enzyme, fluorescence intensity read-out; inhibition, %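 (about 17 µg/mL by stock and volumes)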; 0.89% of 100,000 active; AID 493033, 2011;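 active means above 50% in both replicates, above 80% if mildly self-fluorescent; inactive means the rest, strongly fluorescent compounds included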;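 further: 0% = mean of negative and 100% = mean of positive controls; one replicate is shown; some compounds called inactive have numbers as strong as hits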
Mtb MenB inh: M. tuberculosis MenB inhibitors, primary screen, biochemical, absorbance | 1,4-dihydroxy-2-naphthoyl-CoA synthase (Mycobacterium tuberculosis (strain ATCC 25618 / … | MenB enzyme assay, absorbance read-out; some hits fall short of the stated cut | inhibition, %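 (about 12 µg/mL by stock and volumes)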 | 0.43% of 100,000 active | AID 540299, 2011;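 active means mean of two replicates above 30%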;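 further: 0% = no compound and 100% = wells with inactive enzyme; the first replicate is given; strong numbers were not always called active; inactives centre near -10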
Target sequence (P9WNP5 whole entry, looked up): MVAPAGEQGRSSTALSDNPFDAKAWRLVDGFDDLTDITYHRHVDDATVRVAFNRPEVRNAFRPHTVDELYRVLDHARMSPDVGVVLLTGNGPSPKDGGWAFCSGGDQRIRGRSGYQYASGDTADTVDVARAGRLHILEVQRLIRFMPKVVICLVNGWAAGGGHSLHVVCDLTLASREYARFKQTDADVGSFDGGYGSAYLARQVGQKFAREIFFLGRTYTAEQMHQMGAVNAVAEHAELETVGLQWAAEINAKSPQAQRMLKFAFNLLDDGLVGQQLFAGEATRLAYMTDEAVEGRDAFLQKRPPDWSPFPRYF
Polio RdRp inh intensity: second read-out of Polio RdRp inh, no call of its own (marks repeat the call); % elongation; measured here: total intensity read-out; formula for this scale not given here;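 total fluorescence in place of polarization; lower means less elongation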
* = called active by the depositor; x = not tested or not shown; & = joins results of further samples.

SMILES | Polio RdRp inh | Polio RdRp inh intensity | MbtI inh | Mtb MenB inh
CCc1ccccc1Nc1nc(N)nc(CSc2nncn2C)n1 | 101 | 95 | -3 | -24
CC(=O)N1CC(C)Oc2ccc(S(=O)(=O)NC(C)c3ccccc3)cc21 (configuration not stated) | 101 | 103 | -16 | -8
COc1cc2c(cc1OC)/C(=C/C(N)=O)NC(C)(C)C2 | 99 | 104 | 105 | -65
O=C(c1ccc(NS(=O)(=O)c2ccccc2)cc1)N1CCN(Cc2ccc3c(c2)OCO3)CC1 | 100 | 103 | -5 | 0
Cc1nc2c(c(C)c1CCC(=O)NCC(N)=O)c(=O)n(C)c(=O)n2C | 102 | 103 | 12 | -10
O=C(c1cc(C2CC2)nn1-c1ccccc1)N(CC1CCCO1)c1nc2ccccc2s1 (configuration not stated) | 100 | 97 | 13 | -30
Oc1cccc(-c2csc3nc4ccccc4n23)c1 | 100 | 103 | -4 | 0
CCc1ccc(NC(=O)C(C)OC(=O)c2ccccc2NC(=O)c2ccco2)cc1 (configuration not stated) | 102 | 115 | -7 | -21
N#Cc1cccc(NC(=O)COC(=O)/C=C/c2ccccc2)c1 | 105 | 107 | -8 | x
Cc1ccc2nc(NC(=O)CCNS(=O)(=O)c3cccs3)sc2c1 | 101 | 101 | 0 | -13
Brc1ccc(NCc2ccco2)cc1 | 102 | 103 | -22 | 1
CN(C)CCN(C(=O)c1ccc(Cl)s1)c1nc2cc3c(cc2s1)OCCO3 | 101 | 98 | 18 | -25
O=C(NCCCN1CCCCC1)c1[nH]nc2c1COc1ccccc1-2 | 100 | 101 | 57 | -15
CS(=O)(=O)Nc1ccc(C2=NN(C(=O)c3ccccc3)C(c3ccco3)C2)cc1 (configuration not stated) | 102 | 106 | 3 | -12
COc1cc(NC(=O)CNC(=O)Cn2c(C)cc3ccccc3c2=O)cc(OC)c1OC | 100 | 105 | 11 | 16
C=CCn1c(COC)nnc1SCC(=O)c1ccc(Br)cc1 | 104 | 99 | -10 | -51
COC(=O)c1ccc(O)c(/C=N/N(CCO)C2=NS(=O)(=O)c3ccccc32)c1 | 102 | 108 | 0 | -67
FC(F)C(F)(F)c1cc(-c2ccccc2)n[nH]1 | 100 | 103 | -11 | -13
Cc1cccc(N(Cc2ccccc2)C(=O)c2nc3nc(C)cc(C)n3n2)c1 | 104 | 105 | 1 | -16
Cn1cccc1C#N | 99 | 100 | -9 | -10

Arranged by length of the SMILES (rising): 4 of the compounds above.
SMILES | Polio RdRp inh | Polio RdRp inh intensity | MbtI inh | Mtb MenB inh
CCc1ccccc1Nc1nc(N)nc(CSc2nncn2C)n1 | 101 | 95 | -3 | -24
C=CCn1c(COC)nnc1SCC(=O)c1ccc(Br)cc1 | 104 | 99 | -10 | -51
O=C(NCCCN1CCCCC1)c1[nH]nc2c1COc1ccccc1-2 | 100 | 101 | 57 | -15
COC(=O)c1ccc(O)c(/C=N/N(CCO)C2=NS(=O)(=O)c3ccccc32)c1 | 102 | 108 | 0 | -67

Further structures.
SMILES | Polio RdRp inh | Polio RdRp inh intensity | MbtI inh | Mtb MenB inh
OCc1ccccc1CN1CCCCC1 | 103 | 102 | 29 | -15
O=C(CSc1nccc(=O)[nH]1)c1cccs1 | 98 | 103 | 18 | 15
CCn1c2ccccc2n2c(C(=O)OC)c(C)nc12 | 101 | 105 | -3 | -12
CCN(C(=O)Cn1cccc1C1=NC(c2ccccc2)CO1)c1cccc(C)c1 (configuration not stated) | 101 | 98 | -2 | -26
COC(=O)c1cc2c(s1)-c1cc(F)ccc1OC2 | 104 | 106 | 110 | -14
COc1ccc(CC(=O)NC2CCN(S(=O)(=O)c3ccccc3C(=O)O)CC2)cc1OC | 103 | 104 | -4 | -26
CCN(CC)C(=O)/C(C#N)=C/c1ccc(OC)cc1 | 101 | 103 | 13 | -33
Cn1c(CC2CCS(=O)(=O)C2)n[nH]c1=S (configuration not stated) | 104 | 97 | 21 | 6
CN1CCN(Cc2c(O)ccc3cc(Br)ccc23)CC1 | 99 | 102 | -7 | 10
COc1cc(C=NCc2ccco2)ccc1O | 103 | 101 | x | 8
NC(=O)c1ccc(NC(=O)CCCSc2ccccc2)cc1 | 104 | 109 | -20 | 0
Cc1ccc2c(c1)-c1onc(C(=O)NCCCN3CCCCC3)c1CO2 | 103 | 99 | -13 | -3
C[n+]1ccc(/C=C/c2ccc(N3CCCC3)o2)cc1 | 107 | 100 | 67 | -157
Cc1cc(=O)[nH]c2ccc(S(=O)(=O)NC3CCCCC3)cc12 | x | x | -6 | 4
COc1ccc(N2CCN(C(=O)C(CC(C)C)NS(=O)(=O)c3ccc4c(c3)oc(=O)n4C)CC2)cc1 (configuration not stated) | 104 | 102 | -9 | -22
Cc1cc(OCC(=O)NC2CC2)c2c3c(c(=O)oc2c1)CCC3 | 104 | 106 | -49 | x
Cn1c(-c2oc3nc(-c4ccccc4)cc(-c4ccco4)c3c2N)n[nH]c1=S | 97 | 141 | 5 | -73
c1ccc(C2CC3CC4(CCCC4)N2O3)cc1 (configuration not stated) | 101 | 102 | 12 | 15
COc1ccc(C(=O)OCc2c(C)noc2C)cc1S(=O)(=O)N1CCCc2ccccc21 | 99 | 96 | 3 | -33
Cc1c(C)c2c(c(C)c1OCc1ccccc1)C(CO)C(C)(C)O2 (configuration not stated) | 101 | 98 | -23 | -9
c1ccc2nc(-c3nc4ccccc4o3)ccc2c1 | 104 | 103 | 41 | -16
CC12CCC(CC1=NNC(=O)Nc1ccccc1)C2(C)C (configuration not stated) | 102 | 101 | -13 | -4
Cc1nnc(N(C)C(=O)Cc2ccc3c(c2)OCO3)s1 | 101 | 100 | -10 | -18
O=C(CSc1nc2ccccc2o1)N1CCN(S(=O)(=O)c2ccccc2)CC1 | 103 | 108 | 14 | -14
CC(Oc1ccccc1)C(=O)Nc1ccccc1 (configuration not stated) | 102 | 103 | -17 | -2
CCO/C(C)=N\Oc1nc2nonc2nc1O/N=C(/C)OCC | 102 | 100 | -1 | 29*
Cc1cccc2cc(/C=C3\NC(=S)NC3=O)c(N3CCOCC3)nc12 | 105 | 106 | 0 | -19
O=C(Nc1nc2ccc(Cl)cc2s1)c1ccc(C(=O)c2ccccc2)cc1 | 105 | 108 | -12 | x
Cn1c(=O)c2c(nc(NCC3CCCO3)n2Cc2cccc3ccccc23)n(C)c1=O (configuration not stated) | 101 | 101 | -2 | 10
O=c1[nH]c(-c2ccc(Cl)cc2)nc2sc3c(c12)CCCC3 | 108 | 108 | x | -6
CCCc1nc(NC2CCCCC2)c(C#N)c2c1CCCC2 | 102 | 99 | 1 | -23
O=C(CSc1ncccn1)N1CCc2ccccc2C1 | 100 | 101 | -4 | 5
Cc1nnc2n1NC(c1ccc(Cl)cc1)C(C(=O)N1CCCCCC1)S2 (configuration not stated) | 100 | 101 | -10 | 9
O=S(=O)(NCCSCc1ccco1)c1ccc(Br)cc1 | 102 | 100 | 11 | -13
CN(C(=O)c1nc2ccccc2nc1Cl)C1CCCCC1 | 102 | 105 | -2 | x
Cc1ccccc1-c1nnn(CC(=O)c2ccc(S(=O)(=O)N3CCCC3)cc2)n1 | 107 | 114 | -9 | -25
OC(COc1ccccc1)CN1CCCCC1 (configuration not stated) | 104 | 101 | x | -13
CC1CC(C)CN(c2ncnc3scc(-c4ccccc4)c23)C1 (configuration not stated) | 102 | 105 | -7 | -35
CCn1cc(CCCC(=O)NCCN2CCN(C)CC2)c2ccccc21 | 103 | 108 | -42 | -17
O=C(c1cccnc1Cl)N(Cc1ccccc1)Cc1ccccc1 | 102 | 101 | 4 | -22
O=C(CC1CCCC1)OCc1ccc(Cl)cc1 | 101 | 97 | -1 | x
Cc1ccc(S(=O)(=O)/N=C2\NC(=O)CS2)cc1 | 103 | 105 | -10 | -6
CC1=CC(C)=Nc2ccc(C)cc2N1 | 103 | 101 | 8 | 4
Cc1cc2ncn(CC(C)C)c2cc1C | 101 | 103 | -9 | -5
Cc1cc(C(=O)Nc2cccc(OC(C)C)c2)c(C)o1 | 100 | 105 | 0 | -24
Cc1ccc(C)c(N=C2N(C)CC(=O)N2Cc2cccnc2)c1 | 105 | 107 | -4 | -26
O=C(CSc1c2c(nc3ccc(Cl)cc13)CCCC2)NCCN1CCOCC1 | 101 | 105 | 10 | -21
CC1(C)CC(=O)c2cnc(NC(=O)CSc3nc4ccccc4o3)nc2C1 | 101 | 103 | -8 | -4
COc1ccc(NC(=O)C2c3ccccc3C(=O)N3CCCCC23)cc1OC (configuration not stated) | 100 | 102 | -1 | -25
CCCCn1c(SCN2C(=O)c3ccccc3C2=O)nc2cc(S(N)(=O)=O)ccc21 | 103 | 107 | 15 | -17
CCCn1c(=O)n(C)c(=O)c2c(SC(C(=O)NC(N)=O)C(C)C)nc(CC(C)C)nc21 (configuration not stated) | 105 | 101 | -6 | -5
CC1=C(c2ccc(C)c(C)c2)S(=O)(=O)NC1=O | 99 | 97 | 0 | 6
O=C(Cn1nc(-c2ccccc2)ccc1=O)Nc1ccc(N2CCN(C(=O)c3ccccc3)CC2)cc1 | 101 | 102 | 2 | 14
CC1CN(C(=O)c2cc3n(n2)C(C(F)(F)F)CC(c2ccco2)N3)CC(C)O1 (configuration not stated) | 105 | 102 | -5 | -25
C=CCn1c(C)cc(C(=O)CSCc2nc3sc(C)c(C)c3c(=O)[nH]2)c1C | 139 | 207 | 34 | -29
S=c1[nH]nc(-c2ccccc2)o1 | 100&94 | 93&94 | -11&11 | -8&-13
O=C(NCC(c1ccc(F)cc1)N1CCOCC1)C(c1ccccc1)c1ccccc1 (configuration not stated) | 104 | 104 | -14 | x
O=C1c2ccccc2C(=O)N1Cc1ccc(Cl)cc1 | 98 | 100 | -3 | -11
O=C(O)CCc1nc2ccccc2n(CCc2ccccc2)c1=O | 104 | 110 | -28 | x
CC(C)CNC(=O)c1cnc2n(c1=O)CCS2 | 103 | 102 | 8 | -18

The last 5 records of the part before lead into the next.
SMILES | Polio RdRp inh | Polio RdRp inh intensity | MbtI inh | Mtb MenB inh
S=c1[nH]nc(-c2ccccc2)o1 | 100&94 | 93&94 | -11&11 | -8&-13
O=C(NCC(c1ccc(F)cc1)N1CCOCC1)C(c1ccccc1)c1ccccc1 (configuration not stated) | 104 | 104 | -14 | x
O=C1c2ccccc2C(=O)N1Cc1ccc(Cl)cc1 | 98 | 100 | -3 | -11
O=C(O)CCc1nc2ccccc2n(CCc2ccccc2)c1=O | 104 | 110 | -28 | x
CC(C)CNC(=O)c1cnc2n(c1=O)CCS2 | 103 | 102 | 8 | -18
CCOc1ccc(Sc2cc(C(=O)N3CCCC3)c3ccccc3n2)cc1 | 104 | 107 | -3 | -14
CC(C)C(NC(=O)C1CCCCC1)C(=O)N1CCN(c2ccc(F)cc2)CC1 (configuration not stated) | 99 | 103 | -9 | -46
O=C(O)CCC/C=C\C[C@@H]1[C@@H](/C=C/[C@@H](O)COc2cccc(Cl)c2)[C@H](O)C[C@@H]1O | 103&100 | 101&100 | -11 | 4
CC1(NS(=O)(=O)c2ccccc2)CCS(=O)(=O)C1 (configuration not stated) | 99 | 103 | -6 | 8
CC(C)CN1CC(c2nc3ccccc3n2CCCN(C)C)CC1=O (configuration not stated) | 99 | 101 | -16 | 11
O=C1CCC(C(=O)NCc2ccccn2)=NN1 | 99 | 108 | -9 | -13
CC1(C)N=C(NS(=O)(=O)c2cc(C(F)(F)F)cc(C(F)(F)F)c2)N(c2ccccc2)O1 | 105 | 97 | -5 | -16
O=C(c1cccs1)N1CCCCC1 | 100 | 101 | x | -6
Cn1ccsc1=NC(=O)c1cc(Cl)c2c(c1)OCCCO2 | 111 | 112 | -61 | -1
COc1ccc(CC(=O)N2C(=O)c3ccc(N)cc3C2=O)cc1OC | 98 | 100 | 0 | -12
Cc1ccc2c(c1)C(=O)CCCO2 | 100 | 88 | -17 | -8
Cn1c(SCC(=O)N/N=C/c2ccccc2)nc2ccccc21 | 100 | 101 | 11 | -25
N#Cc1cc(C(=O)c2cccs2)c(C(F)(F)F)nc1SCc1ccccc1 | 105 | 115 | x | -12
COc1cccc(C(=O)Cn2c(=O)n(CCc3ccccc3)c(=O)c3cc(OC)c(OC)cc32)c1 | 101 | 103 | -4 | -10
Cc1cccc(N/C(=N\S(=O)(=O)c2ccc(Cl)cc2)Nc2nc(C)cc(C)n2)c1 | 101 | 95 | -7 | -12
Cn1c(C(=O)N2CCCc3ccccc32)cc2c(=O)n3ccccc3nc21 | 104 | 105 | 2 | -18
Cc1onc(-c2c(Cl)cccc2Cl)c1C(=O)N(C)c1nnc(C(F)(F)F)s1 | 106 | 96 | 0 | 14
CN(C)c1ccc(C2NC(=S)NC3=C2CCc2ccccc23)cc1 (configuration not stated) | 100 | 105 | 28 | -20
CN(c1ccccc1)S(=O)(=O)c1ccc(Cl)c(C(=O)N2CCOCC2)c1 | 101 | 101 | 14 | 5
Cc1cc(C)nc(SC(C)C(=O)Nc2ccccc2C#N)n1 (configuration not stated) | 105 | 104 | -7 | -21
COCCn1c(O)c(/C=N/N=C2/C(=O)N(C)c3ccccc32)c(=O)[nH]c1=S | 107 | 106 | 14 | -6

Screening data (PubChem BioAssay)
